RanGTP-Imp inh – inhibitors of RanGTP-importin-beta interaction, primary screen, biochemical, FRET, CFP-Ran, YFP-importin-beta, homogeneous; cell-free CFP-Ran/YFP-importin-beta FRET ratio; inhibition, % (concentration not given with the values); 300,000 compounds, 1.1% hits;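 active = most replicates above 15%; inconclusive = exactly half above 15%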;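 note: 0% = DMSO wells and 100% = Ran loaded with GDP instead of GTP; wells of about 40 µL received 100 nL stock; the first replicate is given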
LANA-H2B inh – blocks KSHV LANA binding to histone H2A/H2B. Q9QR71. cell-free LANA-H2A/H2B peptide, fluorescence polarization. inhibition, % (no concentration beside the values). 320,000 compounds, 0.6% hits. AID 2629; in the data active = inhibition mostly above about 10%, no sharp cut-off; inactive = mostly below about 6.7%;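 note: stock transfer was 7.5 nL into about 10 µL; 0% = median of vehicle wells and 100% = median of positive control wells; one replicate is shown; the record names a cut of 25% in any replicate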
AF4-AF9 inh – blocks AF4 peptide binding to human AF9; P42568; AlphaScreen, biotin-AF4 peptide binding to FLAG-AF9; inhibition, % at 10 µM; 350,000 compounds, 0.47% hits;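 active = every replicate reaching a set inhibition limit, whatever the replicate mean, cut at about 25% in these data; inconclusive = mean inhibition reaches that limit but some replicates miss it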;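 note: 0% = plate neutral control median and 100% = total signal loss; the record names both 10 and 1 µM as test concentration; the first replicate is given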
Target sequence (P42568 whole entry, looked up): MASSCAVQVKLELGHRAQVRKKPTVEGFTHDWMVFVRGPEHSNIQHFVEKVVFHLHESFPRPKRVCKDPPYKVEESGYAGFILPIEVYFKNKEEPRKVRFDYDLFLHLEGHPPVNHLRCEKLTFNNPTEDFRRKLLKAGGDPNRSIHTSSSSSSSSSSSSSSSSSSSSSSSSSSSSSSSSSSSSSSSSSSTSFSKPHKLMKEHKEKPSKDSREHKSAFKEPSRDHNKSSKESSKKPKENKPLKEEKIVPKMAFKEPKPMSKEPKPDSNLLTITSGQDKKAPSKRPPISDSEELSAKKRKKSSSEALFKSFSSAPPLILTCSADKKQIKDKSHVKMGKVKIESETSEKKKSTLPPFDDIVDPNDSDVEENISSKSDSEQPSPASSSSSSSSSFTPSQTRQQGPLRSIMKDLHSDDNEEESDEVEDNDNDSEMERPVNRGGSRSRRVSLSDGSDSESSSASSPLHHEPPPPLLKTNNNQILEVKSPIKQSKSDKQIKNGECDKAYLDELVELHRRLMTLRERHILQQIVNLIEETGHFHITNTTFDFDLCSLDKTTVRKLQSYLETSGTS
Calb FLC – C. albicans growth modulation with fluconazole. growth inhibition, % (test concentration not listed). 300,000 compounds, 0.57% hits. C. albicans CaCi-2 (fluconazole-resistant clinical isolate) + fluconazole, Alamar Blue growth, 48 h. AID 1979;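 active = most replicates above 75%; inconclusive = exactly half above 75%; inactive = most below 75%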;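 note: all wells also contain fluconazole at 8 µg/ml as a sub-toxic cotreatment; 0% = median of DMSO wells and 100% = median of geldanamycin control wells; wells of about 8 µL received 7.5 nL stock; the first replicate is given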
T cruzi inh – T. cruzi replication inhibition; 300,000 compounds, 1.4% hits; T. cruzi beta-gal in NIH3T3, luminescence, 90 h; inhibition, % (test concentration not listed); AID 1885;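 active = mean inhibition across valid replicates above about 55%, limit read from the data; inconclusive = mean below that limit but half or more replicates reach it; inactive = mean below it, under half of replicates reach it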;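 note: signal also drops with host cell toxicity which is not excluded here; 0% = plate median of DMSO wells and 100% = zero luminescence signal; higher percent means less beta-gal luminescence so fewer parasites; stock transfer was 50 nL into about 50 µL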
Beta apoptosis – blocks beta cell apoptosis | INS-1E cytokine-induced death, ATP luminescence, 48 h; percent of positive-control rescue, neutral wells zero | protection from apoptosis, % (no concentration beside the values) | 300,000 compounds, 0.8% hits | AID 435005;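 active = all replicates at 75% or more, or half of them and the mean; inconclusive = half reach 75% but not the mean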;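 note: 0% = cytokine-treated negative control wells and 100% = positive control rescue; higher means more ATP so stronger rescue from cytokine killing; wells of about 40 µL received 100 nL stock; the first replicate is given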
A1 inh – inhibitors of the anti-apoptotic protein A1, read as caspase activation | MEF A1-2A-BIM cells, Caspase-Glo 3/7 luminescence, 3 h; percent of clofoctol response, vehicle zero | caspase activation, % (concentration not given with the values) | 330,000 compounds, 0.066% hits | AID 2462;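 active = over half of replicate activation scores above 10%, or exactly half above 10 with the replicate mean above 10; inconclusive = replicate mean below 10 yet half the replicates above 10; inactive = over half of replicates below 10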;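 note: wells of about 30 µL received 50 nL stock; many hits fall short of the cut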
Vif A3G – inhibitors of Vif binding to APOBEC3G peptide, primary screen, biochemical, TR-FRET, GST-Vif 1-94, biotin-A3G peptide, dose response retest (AID 1117319) | TR-FRET GST-Vif / biotin-A3G peptide binding; higher % means a stronger effect; test concentration not given here; strong numbers were not always called active | 260,000 compounds, 0.57% hits | one-dose inhibition, %; IC50 in µM for titrated hits;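 active = above the screen mean plus three standard deviations and confirmed in dose response; inconclusive = results disagree or hit not tested in dose response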;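 note: Vif residues 1-94 fused to GST binding biotinylated APOBEC3G peptide 110-148; 0% = full assay without inhibitor and 100% = GST in place of GST-Vif; retest series ran down from 100 µM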
* hit, by the source's call; u = inconclusive; x = no result given.

mol,RanGTP-Imp inh,LANA-H2B inh,AF4-AF9 inh,Calb FLC,T cruzi inh,Beta apoptosis,A1 inh,Vif A3G
N#C/C(=N\Nc1ccc(S(=O)(=O)N2CCCCC2)cc1)C(N)=S,1.1,-4.0,2.5,-11.6,10.7,7.4,1.2,11.0%
COCCCNC(=O)C1Cc2cc(S(=O)(=O)N3CCCC3)ccc2N1C(C)=O (stereo not given),1.7,3.0,-0.1,-6.2,-8.0,x,1.7,x
CCOC(=O)N1CCN(Cc2nc3cc(NC(=O)C(C)C)ccc3n2C)CC1,-3.2,2.2,-0.1,5.4,-11.0,2.8,0.1,-3.5%
NNC(=S)NC1CCCCCCCCCCC1,2.5,-7.5,-1.2,2.3,x,-2.5,1.2,-0.7%
Cc1cc(=O)[nH]c(SCC(=O)Nc2cccc3ccccc23)c1C#N,2.8,2.9,3.3,0.5,-36.3,2.3,1.0,16.1%
Fc1ccc(C2=Nn3c(Cc4ccccc4F)nnc3SC2)cc1,u,0.2,x,-1.1,9.0,0.6,-0.2,-0.6%
Nc1ccc(CN2CCOCC2)cc1,1.3,2.5,-0.1,-0.2,-4.4,2.1,-0.5,2.4%
CC1CC1C(=O)OCC(=O)N(C)c1c(N)n(Cc2ccccc2)c(=O)[nH]c1=O (stereo not given),3.1,-1.4,-10.3,5.1,-7.0,1.6,0.3,-2.3%
CN(CC(=O)Nc1c(Cl)cccc1Cl)C(=O)c1cccn1C,0.6,6.1,-1.2,-7.1,2.7,-9.9,0.3,x
Cn1c(SCC(=O)N/N=C/c2ccc(O)c(O)c2)nc2ccccc21,2.6,2.4,1.5,7.0,-7.4,0.6,0.3,10.6%
COc1ccccc1N1CCN(C2CC(=O)N(c3cccc(Cl)c3)C2=O)CC1 (stereo not given),-3.0,21.5*,4.9,-2.3,-14.9,2.8,0.5,1.2%
O=C1CCc2cc(S(=O)(=O)NCCc3ccccc3)cc3c2N1CC3,-2.4,1.9,1.5,-0.1,1.7,-2.4,0.1,3.9%
O=C(OCCN1C(=O)c2ccccc2C1=O)c1cc(S(=O)(=O)N2CCOCC2)ccc1F,-3.9,1.4,x,8.6,0.6,-1.6,0.4,-0.7%
Cc1cccc(N2C(=O)CC(NNc3nc4ccccc4s3)C2=O)c1 (stereo not given),6.1,-1.9,-1.6,-21.4,-0.9,-6.0,0.3,-4.5%
CCOC(=O)N1CCN(C(=S)NC2CCCCC2)CC1,-0.7,-0.4,0.0,5.1,-17.2,3.3,-1.3,5.1%
COc1cccc(-c2noc(CCCC(=O)Nc3ccc(C(N)=O)cc3)n2)c1,-1.2,1.6,2.5,-2.5,2.7,-5.2,0.6,1.3%
N#C/C(=C/c1cn(CC(=O)O)c2ccccc12)C(=O)Nc1ccccc1,u,-1.7,-2.7,-3.3,3.4,2.8,-0.7,9.9%
OCCOCCOc1ccc(-c2nn[nH]n2)cc1,3.7,9.9,-0.1,-5.5,-4.5,0.2,0.2,0.6%
COc1cc(/C=C2/C(=O)NN(c3ccccc3)C2=O)cc(Br)c1O,-1.3,2.9,-0.8,-17.3,1.6,x,0.6,1.3%
CCC(OC(=O)c1cc2sccc2n1C)C(=O)NCc1ccco1 (stereo not given),2.0,4.1,5.0,-37.5,14.8,-19.1,0.2,-1.9%
CCCCC(=O)Nc1nnn(CCC)n1,3.3,1.0,x,-9.6,-4.2,x,0.9,0.9%
CN(Cc1cccc2cnccc12)C(=O)CCc1nnc(CCc2ccccc2)o1,-0.5,3.7,0.3,10.6,0.1,-5.0,-1.0,-6.5%
CC(C)c1nc2cc(C(=O)N(C)C3CCOCC3)ccc2o1,0.6,-0.9,0.1,-4.8,-5.8,-0.8,0.2,-6.9%
O=C(Cc1ccsc1)NNC(=O)c1cccc(Cl)c1,0.6,-0.4,-3.5,6.1,-7.5,x,0.6,x
CC(C)(C)n1nnnc1CN1CCN2CCCC2C1 (stereo not given),-1.8,-5.2,x,-14.8,10.0,x,-0.5,2.2%
Cc1ccc2c(c1)C(=O)CC(c1ccc3c(c1)OCCO3)O2 (stereo not given),-1.5,-8.3,0.7,-2.1,-16.6,-1.1,-0.6,-3.2%
CCOC(=O)c1c(/N=C/c2cccc([N+](=O)[O-])c2O)sc(C)c1C,0.2,4.2,-9.5,2.9,4.2,-2.7,-0.5,x
CCCCOc1ccc(CN2CCCCC2)cc1,5.3,-3.8,-35.5,-16.4,58.6*,-3.3,1.6,0.3%
CN(C)CCn1c(COc2ccccc2)nc2ccccc21,2.3,0.2,x,2.4,-1.2,-2.2,-0.2,x
CN(C)C(=O)COc1ccc2cc(-c3ccccc3)c(=O)oc2c1,-5.5,4.9,x,3.0,-16.1,0.7,-3.3,2.4%
COc1ccc(OCC(=O)Nc2ccc(C)cc2)cc1,-0.1,-1.4,x,2.2,7.7,6.5,x,0.0%
CCCCN1C(=O)C(=O)N(CC(=O)c2cc(C)n(C3CC3)c2C)C1=O,x,-3.4,1.8,x,x,-3.3,1.6,x
O=C(CSc1nccn1-c1ccccc1)N1CCc2ccccc21,6.9,-1.3,x,0.0,7.0,x,1.2,11.3%
Cn1nc(-c2ccccc2)cc1NC(=O)c1cccs1,-1.4,-10.2,-2.9,1.2,-6.2,-0.4,-0.3,x
CCOc1ccc(NC(=O)N2CCCC2C(=O)NCC2CCCO2)cc1 (stereo not given),u,4.4,-2.1,-4.8,-2.7,-0.7,0.7,-4.4%
O=c1[nH]c(-c2ccccc2)nc(-c2ccccc2)c1Cl,-0.7,0.7,-1.6,-2.1,-6.8,4.2,0.2,x
O=C1C2=C(CCCC2)C(=O)N1CNc1ccccc1,-2.2,2.6,0.9,-15.2,-10.4,-2.5,0.4,-3.8%
Cc1ccc(-c2c(C(=O)N/N=C/c3sccc3C)nnn2-c2nonc2N)cc1,-1.6,-1.4,-0.1,-5.3,9.8,-2.4,-0.4,x
Cc1cc(N2CCN(S(=O)(=O)c3ccc(Br)cc3)CC2)n2ncnc2n1,-0.3,2.9,-0.1,-12.8,3.0,2.0,1.4,x
CCOC(=O)n1c(=O)n(Cc2ccc(F)cc2)c2ccccc21,0.5,2.4,-0.9,-3.6,2.3,7.8,0.2,12.1%
Cc1ccc(-n2c(=O)[nH]c3c(C(N)=O)nc(-c4ccc(C)o4)nc32)cc1,-3.5,-0.6,x,-3.5,5.2,2.7,-0.2,6.7%
COc1ccc(-c2noc(Cn3cc(S(=O)(=O)N4CCCC4)ccc3=O)n2)cc1,x,0.9,0.7,x,x,-1.4,-0.1,-1.5%
COCCNc1nnc(SCC(=O)NNC(=O)c2ccccc2)s1,1.4,7.2,-0.6,-27.2,5.0,-3.9,0.2,2.6%
O=C(NC1CCCCC1)c1cnn2c(C(F)(F)F)cc(-c3ccco3)nc12,10.9,4.3,x,-0.9,18.4,21.2,-0.1,4.0%
O=C(Nc1nccs1)c1ccc2ccccc2c1,7.4,3.0,-11.8,9.9,-13.2,x,-4.2,-5.1%
Cc1csc(NC(=O)CN2C(=O)c3ccccc3C2=O)c1C(N)=O,3.2,5.3,0.2,3.5,-2.7,0.2,0.0,2.8%
Nc1o[nH]c(=O)c1Cc1ccccc1,7.4,x,-0.8,-13.3,-5.4,x,x,3.7%
CNCCCOc1cc(C)cc(C)c1C,0.5,0.5,-3.7,-22.6,14.3,-15.2,-0.2,-15.0%
Cc1cc(NC(=O)c2nn(C)c(C)c2Br)no1,-3.7,-1.1,-1.7,19.0,-14.6,-2.5,-2.4,-5.1%
CN(C)S(=O)(=O)c1c(Cl)cccc1Cl,x,2.1,x,-18.0,-4.7,0.5,-0.4,-0.6%

The list goes on:
mol,RanGTP-Imp inh,LANA-H2B inh,AF4-AF9 inh,Calb FLC,T cruzi inh,Beta apoptosis,A1 inh,Vif A3G
COC(=O)CCCCCN1C(=O)NC(c2ccc(-c3ccccc3)cc2)C(C(=O)OCc2ccccc2)=C1C (stereo not given),2.8,-2.8,-9.5,-9.7,-3.4,-7.4,-0.6,-4.7%
CCOc1ccc(OCC)c(NC(=O)CN2CCN(c3cccc(C)c3C)CC2)c1,x,-5.1,-1.1,x,x,1.4,-0.3,4.8%
Cc1nnc(SCCn2c(N3CCCC(C)C3)nc3c2c(=O)[nH]c(=O)n3C)s1 (stereo not given),-0.4,4.3,x,1.4,-11.7,1.5,0.9,6.6%
CC1CCN(c2nc3c(c(=O)n(C)c(=O)n3C)n2CCSc2ncccn2)CC1,0.2,2.0,-9.4,-3.7,8.0,-4.4,0.0,x
COc1cc(CNC(=O)CCCC/C=C\C(C)C)ccc1O,-3.8,0.0,x,-2.6,-2.6,-0.7,0.0,-4.3%
CC1=CC(=O)C(C(C)C)=C/C1=C(\c1cc(C(C)C)c(OP(=O)(O)O)cc1C)c1ccccc1C(=O)O,-0.2,-3.3,-4.0,-4.9,-8.4,3.7,1.1,2.5%
CCCCOP(=O)(OCCCC)C1(NS(=O)(=O)c2ccccc2)C=CC(=O)c2ccccc21 (stereo not given),3.0,-0.9,x,29.9,0.3,-4.4,0.1,20.1%
O=C(CN(C(=O)c1csnn1)c1ccccc1F)NCc1ccc2c(c1)OCO2,3.0,-9.0,2.1,-16.3,-7.7,-6.4,0.2,x
COc1ccc(N(CCCN2C(=O)c3cccc4cccc(c34)C2=O)C(=O)c2cccnc2)cc1,0.6,3.0,5.8,-17.1,67.9*,x,0.3,-4.4%
O=C(Nc1nccs1)c1ccc(Cl)cc1[N+](=O)[O-],2.6,5.3,-48.8,-3.6,-10.7,-1.4,0.8,-4.8%
CCOc1c(S(=O)(=O)N2CCCC2)ccc(Cl)c1Cl,5.9,2.1,x,2.2,-9.3,0.5,-0.1,7.5%
O=C(NC1CC1)c1cc2c(s1)CS(=O)(=O)C2,-2.6,5.3,-2.8,1.8,-5.9,-3.5,0.3,-0.7%
COc1ccc(OC)c(NC(=O)CCNC(=O)Cn2cnc3ccccc3c2=O)c1,3.6,-0.9,-1.0,-7.2,-5.0,-3.2,0.3,21.3%
O=C(Nc1nnc(Cc2ccc(Cl)cc2)s1)c1ccco1,7.5,-2.4,x,4.5,-15.3,-1.9,-0.5,9.0%
COc1ccccc1C(=O)Nc1ccc2c(C)cc(=O)oc2c1,4.3,-4.6,2.2,-6.0,-8.1,10.6,-0.4,1.5%
COc1ccc([N+](=O)[O-])cc1NC(=O)c1cn(-c2ccc(C)c(C)c2)c(=O)c2ccccc12,0.7,-4.8,2.7,2.3,-3.1,3.9,-0.1,x
CC1(c2nnc(-c3cccc(Cl)c3)o2)CC(c2cccc(F)c2)=NO1 (stereo not given),-0.6,1.1,x,-12.2,-4.0,-4.8,-0.6,x
COc1ccccc1N1CCN(C(=O)c2noc(C)c2[N+](=O)[O-])CC1,-1.8,x,-2.8,-3.2,-11.7,x,x,13.2%
CC(=O)N1c2c(cc(Br)cc2S(=O)(=O)NCc2ccc3c(c2)OCO3)CC1C (stereo not given),1.2,1.1,x,15.2,1.4,x,0.5,-0.7%
Cc1ccc(S(=O)(=O)CCc2ccccn2)cc1,0.1,-0.8,x,11.0,-16.0,0.7,0.3,-10.5%
CSc1n[nH]c(NC2=CC(=O)CCC2)n1,1.2,-3.7,x,-4.8,-12.8,-0.1,0.9,-0.8%

This is a random part of the collection. Share with any hit: about 4.3%.
